Screening data as filed in PubChem BioAssay.
Bm FixLJ act: activators of Burkholderia fixLJ two-component system | z-score (concentration not given with the values) | B. multivorans fixK-promoter GFP reporter, 18 h; stronger effect = higher value | 29,000 compounds, 0.3% hits | AID 1918990;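 active = replicate mean overnight rise in green fluorescent reporter signal, 3 or more SD over negative controls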;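 also: score is relative to vehicle wells of the plate; 300 nL library stock went into each well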
Numbers without * were called inactive; & = joins results of further samples. The list is partial (hit frequency here may not be typical).

SMILES	Bm FixLJ act
COc1cc(C(=O)n2nc(-c3ccco3)nc2NCc2ccc(Cl)cc2)cc(OC)c1OC	-1.67
Cc1cccc(C(=O)N2CCC[C@@]3(CN(Cc4ncc(C)[nH]4)CCC3O)C2)c1 (stereo partly drawn)	0.68
CN(CC(=O)N1CC2c3ccccc3OC[C@]2(C(=O)O)C1)Cc1ccccc1 (stereo partly drawn)	0.49
COc1ccc(CN2C(=O)C(NC(=O)c3ccccc3C)(C(F)(F)F)N=C2c2ccccc2)cc1 (stereo not drawn)	-1.14
COC(=O)c1cc2n(n1)CCN(S(=O)(=O)c1ccc(C)cc1OC)C2	-0.07
N#Cc1cccc(C(=O)N2CCC3(CC2)OCCc2sccc23)c1	-3.01
COc1ccc(N2CCN(C(=O)Cn3nc(Cc4cccnc4)c4ccccc4c3=O)CC2)cc1	-1.21
CCCCOC(=O)c1ccc(NC(=O)c2cc(=O)c3ccccc3o2)cc1	-1.87
Cc1ccc(Cl)cc1NC(=O)Cn1ncc2c(C)n(Cc3ccccc3F)c(C)c2c1=O	-2.62
Cc1cccc(NC(=O)CN(C)S(=O)(=O)c2ccc3c(c2)c(=O)n(C)c(=O)n3C)c1	-0.7
CCOCCn1c(=O)n(CCC(C)C)c2ncc(C(=O)O)cc21	0.26
Cc1ccc(S(=O)(=O)C2(C(=O)Nc3ccc(C(C)C)cc3)CC2)cc1	-2.15
CCN(CCc1nc2ccc(F)cc2[nH]1)C(=O)NCc1c(C)noc1C	-1.05
CCc1noc(C)c1C(=O)NC1CCCN(C(=O)c2ccco2)C1 (stereo not drawn)	-1.34
COc1cccc(NC(=O)C2CCN(c3cc(C)nc4c(-c5ccc(Cl)cc5)c(C)nn34)CC2)c1	-0.45
COc1cccc2c1Oc1nc(-c3ccccc3)nc(SCC(=O)Nc3ccccc3)c1C2	0.11
O=C(c1cccc(S(=O)(=O)N2CCCC(O)C2)c1)N1CCCCCCC1 (stereo not drawn)	-0.5
COCc1noc(CNC(=O)N2CCCCC2c2ccc(F)cc2)n1 (stereo not drawn)	-0.31
CCc1ccc(C(=O)N2CCC3(CCCN(C(C)C)C3=O)C2)[nH]1 (stereo not drawn)	-1.12
CCS(=O)(=O)C(C)C(=O)N1CCN(C(=O)c2ccccc2)CC1 (stereo not drawn)	-0.01
CCCN1Cc2cccc(C(=O)Nc3cccc(C(=O)OCC)c3)c2C1=O	-1.89
Cc1cnn(CCCNC(=O)C2CCC(NC(=O)c3ocnc3C)C2)c1 (stereo not drawn)	-1.06
Cc1cc(N2CC(O)C(Cc3ccc4ccccc4n3)C2)nc(N(C)C)n1 (stereo not drawn)	-1.31
COc1c[nH]c(C(=O)NC(CCSC)C(=O)O)cc1=O (stereo not drawn)	0.07
CC(NC(=O)CCNS(=O)(=O)c1cccc2nsnc12)c1ccccc1 (stereo not drawn)	-1.33
Carrying on:
SMILES	Bm FixLJ act
CCCCOc1ccc(S(=O)(=O)NCc2csc(-c3ccc(OC)cc3)n2)cc1	-1.96
Cc1c(NC(=O)c2cc(-c3ccc(Br)cc3)on2)c(=O)n(-c2ccccc2)n1C	0.61
COc1ccccc1NC(=O)NCCCN1CCN(c2ccc(F)cc2)CC1	-0.01
CCOC(=O)c1c(C)n(-c2ccccc2)c2ccc(OC(=O)c3cc(OC)cc(OC)c3)cc12	0.3
Cc1ccccc1CNC(=O)C1CCN(c2nnc(-n3c(C)ccc3C)s2)CC1	-1.22
CCOC(=O)c1nn2c(C(F)(F)F)cc(-c3ccc(C)cc3)nc2c1Cl	-2.29
CCCOC(C)C(=O)N1CCc2c(nc(-c3cccnc3)[nH]c2=O)C1 (stereo not drawn)	-0.48
CCOc1ccc2c(c1)c(=O)c(C(=O)c1ccc(CC)cc1)cn2CC(=O)Nc1ccc2c(c1)OCCO2	-0.86
COc1cccc(CCNC(=O)c2c(O)nc3cc(C)ccn3c2=O)c1	0.4
Cc1ccc(Sc2ccc(N3CCCC(C(=O)Nc4ccc(F)c(Cl)c4)C3)nn2)cc1 (stereo not drawn)	-0.39
Cc1cccc(C(=O)N2CCCCC2CCN2CCCCC2)c1 (stereo not drawn)	-1.69
CS(=O)(=O)c1ccc(C2(C(=O)N3CCCCCC3)CCC2)cc1	-0.47
CCOc1ccc(-c2cc3nc(C4CCN(C(=O)OC(C)(C)C)CC4)c(C(=O)Nc4cccc(C(F)(F)F)c4)cn3n2)cc1	-2.93
Cc1c(C(=O)OCC2CCCCC2)[nH]c2c1C(=O)CC(c1ccc(Cl)cc1)C2 (stereo not drawn)	-1.46
Cc1cc(C(=O)NCC2C3CC[C@]4(CN(Cc5cn[nH]c5C(=O)O)C[C@@H]24)O3)c(C)o1 (stereo partly drawn)	-0.35
CCc1ccc(-n2nc(CO)c(C(=O)NCCc3ccccc3)n2)cc1	0.89
COc1cc2c(cc1OC)C(COc1ccc3c(C)cc(=O)oc3c1)N(C(=O)CC(C)C)CC2 (stereo not drawn)	-4.41
CCOc1ccccc1CN(CCc1ccc2c(c1)OCO2)Cc1cccc(OC)c1OC	-0.5
O=C(Cn1nc(C(F)(F)F)c2c1CCCC2)Nc1ccc(Cl)cc1	-1.41
NNC(=O)c1ccncc1	-1.02&-1.36
Cc1ccc2cccc(NC(=O)c3cccc4c(Br)cccc34)c2n1	-0.39
Cc1ncncc1C(=O)N1CCC(c2nnc(CN(C)C)n2C2CC2)CC1	-0.99
O=C1CCCCCN1CCc1ncnn1CCc1ccccc1	-2.14
CC1(C)CC2C[C@@](C)(CN2C(=O)Nc2ccc3c(c2)COC3=O)C1	0.77
Cc1c(Cl)cccc1NC(=O)Cn1c(=O)n(Cc2ccco2)c(=O)c2sc3ccccc3c21	0.75
Next section:
SMILES	Bm FixLJ act
Cc1ccccc1Cn1c(=O)n(CCc2ccccc2)c(=O)c2ccccc21	2.65
COc1ccc(NC(=O)c2ccco2)cc1NC(=O)COc1ccc(C)c(C)c1	-1.74
Cc1cccc(N2CCN(C(=O)c3ccc4c(Cl)c5c(nc4c3)CCCC5)CC2)c1C	-0.42
COC(=O)c1cc2sc(C)cc2n1Cc1ccc(F)cc1Cl	0.16
Cc1cc(NS(=O)(=O)c2ccc3nc(-c4ccccc4)[nH]c3c2)ccc1Br	-1.61
COc1ccc(C2C(C(=O)Nc3ccccc3)=C(C)Nc3nc(-c4ccccc4Cl)nn32)cc1OC (stereo not drawn)	-1.61
Cc1ccc(C)c(CN2C(=O)CSc3ccc(C(=O)NCc4ccc(F)cc4)cc32)c1	-1.31
CCCOc1cccc(C(=O)Nc2ccc(-c3nc4ccccc4s3)c(Cl)c2)c1	-2.33
CCCSc1nc2sc3c(c2c(=O)n1Cc1ccccc1)CC(C)(CC)OC3 (stereo not drawn)	-0.46
O=C(NCCN1CCCC(c2ccccc2)C1)c1ccccc1-c1ncc[nH]1 (stereo not drawn)	-0.44
COCCCN1CC2(CCC1=O)CCN(C(=O)c1ccc3nc(C)[nH]c3c1)CC2	-0.84
CCc1cccc(C)c1Nc1c(-c2ccsc2)nc2ncccn12	-1.83
CCOC(=O)c1ccc(NC(=O)c2csc3c2CCCC3)cc1	0.19
CC(C)Sc1ncc(Cl)c(C(=O)Nc2ccc(S(=O)(=O)Nc3ncccn3)cc2)n1	-0.5
COc1cc(NC(=O)Cn2c(=O)n(CC3CCC(C(=O)NCCc4ccccc4)CC3)c(=O)c3ccccc32)cc(OC)c1 (stereo not drawn)	0.22
CCN1Cc2nc(OC)c(CNC(=O)C(C)N3CCCC3=O)cc2C1=O (stereo not drawn)	-1.29
O=C(NC1COCC1Cc1ccncc1)c1cnc(N2CCOCC2)nc1 (stereo not drawn)	-1.29
CCS(=O)(=O)CCSc1nc(-c2ccc(Br)cc2)cc(-c2ccccc2)c1C#N	-0.39
COc1ccccc1NC(=O)Cn1c(=O)n(CCc2ccccc2)c(=O)c2sc3ccccc3c21	0.2
CN(Cc1ccccc1)C(=O)c1c[nH]c2ccc(S(=O)(=O)Nc3ccccc3F)cc2c1=O	-0.42
Cc1ccc(S(=O)(=O)n2nc(-c3ccccc3)nc2NCc2ccccc2Cl)cc1	1
COc1cc2nc(N3CCN(C(=O)C4CCCO4)CC3)nc(N)c2cc1OC (stereo not drawn)	0.47
COc1cccc(NC(=O)Nc2cc(-c3cn4cccnc4n3)ccc2OC)c1	-2.4
CCOc1ccc(C2CC(=O)Nc3cc4c(cc32)OCO4)cc1OC (stereo not drawn)	-0.6
Cc1ccc(CNC(=O)c2nn(-c3ccc(Cl)cc3)nc2CO)cc1	-1
Further entries
SMILES	Bm FixLJ act
Cc1nc2c(c(N3CCCC3)n1)CCN(C(=O)CCCn1cccn1)C2	-1.03
CCCn1ncc(C(=O)NCc2ccc(C(=O)O)s2)c1C	0.54
Cc1c(C(=O)OC2CCCCCC2)[nH]c2c1C(=O)CC(c1ccc(Cl)cc1)C2 (stereo not drawn)	-1.19
COc1cccc(-n2c(=O)c3c4c(sc3n(Cc3ccc(C)cc3)c2=O)CCCC4)c1	-0.35
Cc1cc(C)c2c(CC(=O)N(Cc3ccc(N(C)C)cc3)Cc3ccco3)coc2c1	-1.31
Cc1ccc(NC(=O)Cn2c(=O)n(CCCCC(=O)NCCc3ccccc3)c(=O)c3ccccc32)c(C)c1	-0.29
CC(=O)N1CC2CCC(C1)N(C(=O)CCc1nc3ccc(F)cc3[nH]1)C2 (stereo not drawn)	-1.33
O=C(CN1CCC(O)(c2ccccc2)C1)Nc1ccc(Cl)cc1F (stereo not drawn)	0.84
COCCC(=O)N1CC2CCC1CN(C(=O)c1ccccn1)C2 (stereo not drawn)	-1.82
Cc1cc(Br)ccc1NC(=O)C1CCCN(S(=O)(=O)c2cccc3nonc23)C1 (stereo not drawn)	-1.29
O=C(NCCc1nc(-c2ccccn2)no1)N1CCCC(c2ccncn2)C1 (stereo not drawn)	-1.83
Cc1[nH]c(CN2CCn3nc(C(O)c4nccn4C)cc3C2)cc1C#N (stereo not drawn)	-1.59
COc1cc(Cl)c(C)cc1NC(=O)N(Cc1nccn1C)C1CC1	0.05
Cc1nc(C)c(C(=O)NCc2cc3n(n2)CCCN(C(=O)C2CCC2)C3)o1	-0.31
Oc1ccc2c3c1O[C@H]1[C@@H](O)CC[C@@]4(O)[C@@H](C2)N(CC2CCC2)CC[C@]314	-0.92
Cc1ccc2c(c1)cc(CN(Cc1cocn1)Cc1cocn1)n2C	-1.65
O=C(Cn1cc(S(=O)(=O)N2CCN(c3ccccc3F)CC2)c2ccccc2c1=O)Nc1cccc(C(F)(F)F)c1	0.33
Cn1nc(C2CCCN(C(=O)c3ccnc(N)c3)C2)n(-c2ccccc2)c1=O (stereo not drawn)	0.97
CN(CCc1noc(C2CC2)n1)C(=O)C1CNCC(C(=O)N2CCCC2)C1 (stereo not drawn)	0.87
COc1ccc(/C=C/c2noc(-c3ccccc3O)n2)cc1OC	0.35
COc1ccccc1N1CCN(c2ccc(=O)n(CC(=O)O)n2)CC1	0.27
Cc1ccc(-c2nc3cc(Cl)ccc3o2)cc1NC(=O)c1cc2ccccc2o1	-0.74
CCc1nn(CC(=O)NCCC(C)C)c(=O)c2cc3occc3n12	0.33
O=c1n(Cc2cccc3ccccc23)nc(C2CCNCC2)n1Cc1ccccc1	-1.21
[N-]=[N+]=CC(=O)OCC(N)C(=O)O (stereo not drawn)	-2.57

Exported field by field: part of the list above.
> Cc1c(C(=O)OC2CCCCCC2)[nH]c2c1C(=O)CC(c1ccc(Cl)cc1)C2 (stereo not drawn)
  Bm FixLJ act: -1.19

> COc1cccc(-n2c(=O)c3c4c(sc3n(Cc3ccc(C)cc3)c2=O)CCCC4)c1
  Bm FixLJ act: -0.35

> Cc1cc(C)c2c(CC(=O)N(Cc3ccc(N(C)C)cc3)Cc3ccco3)coc2c1
  Bm FixLJ act: -1.31

> Cc1ccc(NC(=O)Cn2c(=O)n(CCCCC(=O)NCCc3ccccc3)c(=O)c3ccccc32)c(C)c1
  Bm FixLJ act: -0.29

(more compounds)
SMILES	Bm FixLJ act
CCOc1ccccc1NC(=O)c1c(NC(=O)C(C)Oc2ccc(Cl)cc2)sc2c1CCCCC2 (stereo not drawn)	-0.29
Cc1ccc(NS(=O)(=O)c2ccc3nc(-c4ccccc4)[nH]c3c2)c(Cl)c1	-0.88
CCCCNc1nc2c(c(=O)n(Cc3ccc(Cl)c(Cl)c3)c(=O)n2C)n1C	-1.57
CCN(C(=O)CN(C)S(=O)(=O)c1ccc2c(c1)n(C)c(=O)c(=O)n2C)c1cccc(C)c1	0.89
CCC12COC(=O)N1CCN(C(=O)COc1ccc(Cl)cc1C)C2 (stereo not drawn)	2.12
CC(=O)O[C@H]1C[C@@]2(C)[C@@H](C[C@@H](O)C3[C@]2(C)CC[C@H]2[C@H](C)[C@H](O)CC[C@]32C)/C1=C(/CCC=C(C)C)C(=O)O (stereo partly drawn)	-1.21
COc1ccc(NC(=O)CCc2nc3cccnc3n2Cc2cccs2)c(OC)c1	-0.79
COc1cc(S(=O)(=O)NC(C)c2n[nH]c(C)n2)c(C)cc1C (stereo not drawn)	-0.73
Cc1cc(CN2CCC(c3nnc(CN4CCOCC4)n3C)CC2)on1	0.56
COCCCNC(=O)c1c(NC(=O)c2cc(=O)c3ccccc3o2)sc2c1CCCC2	1.63
CCOc1cc(C2NC(=O)c3c(sc4c3CCN(C)C4)N2)ccc1OC(=O)c1ccc(Br)cc1 (stereo not drawn)	-2.28

Six compounds picked at random from those above:
SMILES	Bm FixLJ act
CCC12COC(=O)N1CCN(C(=O)COc1ccc(Cl)cc1C)C2 (stereo not drawn)	2.12
CCOc1cc(C2NC(=O)c3c(sc4c3CCN(C)C4)N2)ccc1OC(=O)c1ccc(Br)cc1 (stereo not drawn)	-2.28
COc1cc(S(=O)(=O)NC(C)c2n[nH]c(C)n2)c(C)cc1C (stereo not drawn)	-0.73
CCOc1ccccc1NC(=O)c1c(NC(=O)C(C)Oc2ccc(Cl)cc2)sc2c1CCCCC2 (stereo not drawn)	-0.29
Cc1ccc(NS(=O)(=O)c2ccc3nc(-c4ccccc4)[nH]c3c2)c(Cl)c1	-0.88
CCCCNc1nc2c(c(=O)n(Cc3ccc(Cl)c(Cl)c3)c(=O)n2C)n1C	-1.57
